# Source: PubChem (several laboratories)
# PKD1 inh – inhibitors of human PKD1 kinase; Q15139; PKD1 kinase fluorescence polarization assay; inhibition, %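 (about 10 µM by stock and volumes)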; 200,000 compounds, 0.056% hits;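 active = inhibition of 50% or more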;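 note: controls were vehicle for no effect and a reference inhibitor for full effect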
# RGS16-Gao – RGS16-Galphao interaction regulator (human) | O15492+P09471 | bead-based flow cytometry RGS16-Galphao binding, fluorescence; actives lie on both sides | binding response (% of control), % at 10 µM | 220,000 compounds, 0.38% hits;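 active = below 25% or above 175%, edge rows of some plates excepted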;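 note: Galphao activated by GDP with aluminum fluoride before binding; 100% = wells without compound and 0% = beads without RGS; some results beyond the cut were filed as inactive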
# Target sequence (O15492 whole entry, looked up): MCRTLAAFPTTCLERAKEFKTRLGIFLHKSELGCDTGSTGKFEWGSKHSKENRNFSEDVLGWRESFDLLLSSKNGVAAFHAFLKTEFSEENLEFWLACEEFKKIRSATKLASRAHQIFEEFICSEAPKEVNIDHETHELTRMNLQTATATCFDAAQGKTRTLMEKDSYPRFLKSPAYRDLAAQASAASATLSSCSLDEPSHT
# Target sequence (P09471 whole entry, looked up): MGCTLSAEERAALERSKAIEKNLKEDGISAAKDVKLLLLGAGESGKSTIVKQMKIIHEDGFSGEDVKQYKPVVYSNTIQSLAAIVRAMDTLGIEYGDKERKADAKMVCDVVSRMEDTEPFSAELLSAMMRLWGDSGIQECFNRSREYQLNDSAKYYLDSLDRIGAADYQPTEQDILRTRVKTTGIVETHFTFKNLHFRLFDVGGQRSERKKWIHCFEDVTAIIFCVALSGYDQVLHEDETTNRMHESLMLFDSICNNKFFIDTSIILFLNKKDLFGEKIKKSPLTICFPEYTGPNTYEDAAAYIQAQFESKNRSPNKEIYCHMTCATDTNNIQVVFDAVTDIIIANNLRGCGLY
# HSV augment – HSV replication enhancement; 220,000 compounds, 0.005% hits; maximum fold increase; AID 1956; HSV replication augmentation in cells, fold increase;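 active = peak rise of 1.5-fold or more in the series; tested in PC3 cells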;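 note: first round at 10 µM; read as green reporter fluorescence; hits show the peak of a series up to 25 µM; 1 = signal of infected wells without compound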
# INS promoter inh – TRM-6 insulin promoter activity inhibition; TRM-6 cells (human fetal islet line), insulin promoter-eGFP reporter, imaging; reporter expression induced with tamoxifen; AID 1273; 130,000 compounds, 0.9% hits; inhibition, % at 2 µM;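 active = inhibition above the mean plus 3 SD, with well images judged a real hit on visual review, cut at about 60% in these data, passing the limit was not always enough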
# GALR2 ag – activates the human galanin receptor 2; 140,000 compounds, 0.48% hits; activation, %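 (tested at 5 µM)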; O43603; GALR2-expressing cells, agonist activation read-out;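 active = above mean plus 3 SD of all compounds, about 5% in these data, not always enough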;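 note: 0% = vehicle buffer wells and 100% = reference agonist at full effect; tested in CHO reporter cells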
# Target sequence (O43603 whole entry, looked up): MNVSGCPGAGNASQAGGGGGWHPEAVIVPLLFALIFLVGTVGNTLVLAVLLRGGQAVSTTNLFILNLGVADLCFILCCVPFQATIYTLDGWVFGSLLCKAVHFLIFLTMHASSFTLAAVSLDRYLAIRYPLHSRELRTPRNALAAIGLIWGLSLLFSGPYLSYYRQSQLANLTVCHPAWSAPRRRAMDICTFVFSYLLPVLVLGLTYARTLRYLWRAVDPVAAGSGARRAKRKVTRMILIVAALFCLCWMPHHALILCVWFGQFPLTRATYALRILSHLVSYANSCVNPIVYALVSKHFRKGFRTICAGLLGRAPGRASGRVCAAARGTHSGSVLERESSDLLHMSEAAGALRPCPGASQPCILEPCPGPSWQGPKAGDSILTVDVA
# INS promoter inh cell count – further read-out of INS promoter inh, marked with its call; normalized cell count, %; measured here: cell count, toxicity; reference of the scale not given here;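 cells exposed to compound for 48 h; stained nuclei by imaging scaled within each plate; lower means fewer cells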
# HSV augment primary fold – also measured in HSV augment; calls as there; fold increase; compound at 10 µM; measured here: primary screen fold increase 10 uM; tested in PC3 cells;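 GFP signal in the first replicate; 1 = infected wells without compound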
# * hit, by the source's call; i = inactive; . = no result given. Compounds as they come; 1.2% or so of the library scored in one or more.
cpd	SMILES	PKD1 inh	RGS16-Gao	HSV augment	HSV augment primary fold	INS promoter inh	INS promoter inh cell count	GALR2 ag
1	Cc1ccc(C(=O)CC(Nc2ccc(F)cc2)c2ccccc2)cc1 (stereo unspecified)	-8	82	i	1	.	.	-0.2
2	CSc1nsc(SCC(=O)Nc2cccc(C(C)=O)c2)n1	-4	105	i	0.76	.	.	-1.4
3	Cc1nnc(SCc2cc([N+](=O)[O-])cc3c2OCOC3)[nH]c1=O	.	101	i	1	.	.	.
4	CC(C)n1cc(/C=N\NC(=O)c2cc3c(ccc4ccccc43)o2)c2ccccc21	7	101	i	0.77	-12	120	-2.5
5	c1coc(CNc2nc3nonc3nc2NCc2ccco2)c1	-3	100	i	0.99	-18	152	-0.7
6	CCOC(=O)c1cc(NC(=O)N2CCOCC2)c(C)nc1C	-1	96	i	0.82	10	214	-2.7
7	N#C/C(=C/c1ccc(-c2cc([N+](=O)[O-])ccc2Cl)o1)C(N)=O	.	93	i	0.95	.	.	.
8	Fc1ccc(-c2nnc(-n3nnc4ccccc43)c3ccccc23)cc1	-6	.	i	0.87	-20	95	-1.5
9	O=C1CC(c2ccccc2)CC(O)=C1C=NCCN1CCN(C(=S)Nc2cccc(Cl)c2)CC1 (stereo unspecified)	-3	101	i	0.75	-16	115	-1.7
10	Cc1onc(-c2ccccc2Cl)c1C(=O)Nc1nnc(-c2cccc([N+](=O)[O-])c2)s1	4	105	i	1	.	.	-1.1
11	NC(N)=NS(=O)(=O)c1ccc(NC(=S)NC(=O)/C=C/c2ccco2)cc1	-6	102	i	1.1	.	.	-0.4
12	CC(C)(C)c1ccc(-c2csc(NNC3=NCCCCC3)n2)cc1	-4	98	i	0.99	-13	88	0.2
13	FC(F)(F)c1nc(-c2cccs2)ncc1-c1nnnn1-c1ccc(Cl)cc1	0	117	i	0.68	-3	116	-3.0
14	COC(=O)C(C)(C)ONC(=O)Nc1ccc(C)cc1	-6	40	i	0.95	21	115	-1.7
15	COc1ccc(OC)c(N2CC(O)=C(c3nc4ccccc4s3)C2=N)c1	-11	57	i	0.79	9	45	-0.8
16	Cc1cccc(C)c1NC(=O)CCCSc1nnc(-c2ccco2)n1-c1ccccc1	-11	110	i	1	-21	41	-2.4
17	CC(C)CC1(C(=O)NCCc2c[nH]c3ccccc23)C=CCN1C(=O)c1ccccc1 (stereo unspecified)	-4	102	i	1.1	5	97	-0.5
18	O=C(CCn1c(=S)oc2ccccc21)Nc1ccccc1F	5	104	i	0.69	-71	68	.
19	Cc1cccc(C)c1OCC(=O)N1CC2(C)CC1CC(C)(C)C2 (stereo unspecified)	2	115	i	0.94	0	93	-3.2
20	CCOC(=O)Cn1nnnc1C(CC)N(Cc1cccs1)Cc1cc2cc(C)ccc2[nH]c1=O (stereo unspecified)	12	97	i	0.81	.	.	0.2
21	COc1ccc(-n2nnnc2SCC(=O)Nc2cc(OC)c([N+](=O)[O-])cc2C)cc1	-8	93	i	0.8	.	.	.
22	CCOC(=O)c1c(NC(=O)CSc2nc3cccnc3n2C)sc(C(C)=O)c1C	1	98	i	1	.	.	-2.6
23	CCn1c(C(=O)O)c(CC(=O)Nc2ccccc2F)c2ccccc21	-1	113	i	0.85	.	.	.
24	CCOc1cc(S(=O)(=O)NCc2ccc3c(c2)OCO3)ccc1F	-1	103	i	0.85	11	126	-0.3
25	Cc1ccc(C(=O)NC=C(Cl)Cl)cc1	-1	100	i	0.91	6	107	-1.7
26	CC(=O)c1ccc(OCC(O)Cn2nnc3ccccc32)cc1 (stereo unspecified)	2	103	i	0.67	.	.	-2.6
27	COc1ccc(C2=CC(c3cc(OC)c(OC)c(OC)c3)NC(=S)N2)cc1 (stereo unspecified)	4	105	i	0.99	10	148	-0.2
28	COc1ccc(-c2noc(-c3ccc(Cl)cc3)n2)cc1	-7	.	i	0.95	44	126	0.2
29	CN1C(=O)c2ccc(C(=O)Nc3nccs3)cc2C1=O	3	113	i	0.94	.	.	.
30	COc1ccc(S(=O)(=O)Nc2ccc(Cl)cn2)c(C)c1C	-4	104	i	1.1	-32	120	-0.9

# A section from the list above, for reference:
cpd	SMILES	PKD1 inh	RGS16-Gao	HSV augment	HSV augment primary fold	INS promoter inh	INS promoter inh cell count	GALR2 ag
1	Cc1ccc(C(=O)CC(Nc2ccc(F)cc2)c2ccccc2)cc1 (stereo unspecified)	-8	82	i	1	.	.	-0.2
2	CSc1nsc(SCC(=O)Nc2cccc(C(C)=O)c2)n1	-4	105	i	0.76	.	.	-1.4

# Of the compounds above, four contain a nitro group on carbon:
cpd	SMILES	PKD1 inh	RGS16-Gao	HSV augment	HSV augment primary fold	INS promoter inh	INS promoter inh cell count	GALR2 ag
3	Cc1nnc(SCc2cc([N+](=O)[O-])cc3c2OCOC3)[nH]c1=O	.	101	i	1	.	.	.
7	N#C/C(=C/c1ccc(-c2cc([N+](=O)[O-])ccc2Cl)o1)C(N)=O	.	93	i	0.95	.	.	.
10	Cc1onc(-c2ccccc2Cl)c1C(=O)Nc1nnc(-c2cccc([N+](=O)[O-])c2)s1	4	105	i	1	.	.	-1.1
21	COc1ccc(-n2nnnc2SCC(=O)Nc2cc(OC)c([N+](=O)[O-])cc2C)cc1	-8	93	i	0.8	.	.	.

# Carrying on.
cpd	SMILES	PKD1 inh	RGS16-Gao	HSV augment	HSV augment primary fold	INS promoter inh	INS promoter inh cell count	GALR2 ag
31	Cc1ccc(C)c(N2CCN(C(=O)c3ccc(NS(=O)(=O)c4c(C)noc4C)cc3)CC2)c1	13	96	i	1	.	.	-3.0
32	COc1ccc(S(=O)(=O)Nc2ccc(S(=O)(=O)N(C)C)cc2)cc1[N+](=O)[O-]	1	186	i	0.9	7	96	-0.1
33	CCOC(=O)C1CCN(c2nc(C)nc3c2oc2ccccc23)CC1	.	100	i	0.94	.	.	.
34	CCCNS(=O)(=O)c1ccc(CCC(=O)NCc2cccnc2)cc1	-12	97	i	0.97	61	81	-1.1
35	Cc1ccc2c(c1)nnn2C1CCN(CC(=O)N2c3ccccc3CC2C)CC1 (stereo unspecified)	-7	93	i	0.67	18	90	-0.6
36	O=C1Nc2ccccc2C12OCCCCO2	6	103	i	0.98	.	.	-2.3
37	CC(C)NCC(O)COCCOc1ccc(Br)cc1 (stereo unspecified)	5	80	i	0.92	8	70	1.6
38	c1ccc(-c2ccc(-c3csnn3)cc2)cc1	-7	97	i	0.97	-6	90	-3.6
39	CN(c1ccc([N+](=O)[O-])cc1C(=O)Nc1ccccc1)C1CCCCC1	12	99	i	1.1	.	.	-0.8
40	CC(=O)Nc1ccc(C(=O)NNS(=O)(=O)c2ccc(C)cc2)cc1	-11	118	i	0.99	.	.	.
41	COC(=O)c1cc(-c2c[nH]c3ccccc23)n[nH]1	0	98	i	1	-16	80	-0.7
42	Cc1c(C(=O)Nc2ccc(Cl)cc2)c2ccccn2c1CCc1ccncc1	-1	104	i	1.1	.	.	-2.1
43	O=C(O)CCc1ccc(-c2ccc(Br)cc2)n1CC(=O)O	2	99	i	0.96	58	79	-3.7
44	CN(C)C(=O)c1ccc(NC(=O)c2ccccc2Sc2ccccc2C#N)cc1	3	103	i	0.9	19	97	-1.7
45	CCC(C(=O)N1CCN(c2ccccn2)CC1)n1nc(C)n2c(cc3occc32)c1=O (stereo unspecified)	-8	101	i	0.92	15	145	-0.9

# (continued)
no.	Compound	PKD1 inh	RGS16-Gao	HSV augment	HSV augment primary fold	INS promoter inh	INS promoter inh cell count	GALR2 ag
46	CCOC(=O)N1CCN(C(=O)C(CC)n2nc(C)c3sc4ccccc4c3c2=O)CC1 (stereo unspecified)	2	107	i	0.98	9	119	-2.7
47	CCn1cnc2c1c(=O)n(Cc1csc(-c3ccccc3)n1)c(=O)n2Cc1ccccc1	0	102	i	1	-86	78	-2.6
48	CC1CCN(S(=O)(=O)c2ccc3[nH]cc(C(=O)NCCN4CCOCC4)c(=O)c3c2)CC1	-10	102	.	.	-43	119	-2.3
49	CCOC(=O)CCNC(=O)CNC(=O)OCc1ccccc1	-11	78	i	0.86	36	146	-2.8
50	O=C(NC(=S)Nc1ccc2c(c1)OCCO2)c1cccc(Br)c1	-5	124	i	0.99	15	101	-0.2
51	CCC1(C)OCC(Cn2c3ccccc3c3ccccc32)O1 (stereo unspecified)	-8	72	i	0.57	2	99	-0.5
52	O=C(Cc1ncc(C(F)(F)F)cc1Cl)Nc1ccc(F)cc1	-5	103	i	1.1	7	124	-2.1
53	CCC(CC)c1nn2c(N)c(/C=C3\C(C)=Nc4ccccc43)c(=O)nc2s1	.	87	i	0.98	.	.	.
54	CC1(C)Cc2cccc(OCC(O)CNCc3ccccn3)c2O1 (stereo unspecified)	-24	127	i	1	-100	132	-1.5
55	N#CCSc1nc2ccc(N3CCOCC3)cc2c(=O)n1CCc1ccccc1	-4	92	i	0.98	-35	107	-0.4
56	CC(C)(C)C(=O)NC1(C(F)(F)F)C(=O)Nc2c1c(=O)[nH]c(=O)n2Cc1ccco1 (stereo unspecified)	3	102	.	.	6	98	-1.2
57	COc1ccc(NC(C)=O)cc1NC(=O)c1ccc(Cl)cc1	-1	99	i	0.98	-21	124	.
58	CCCc1nnc(SCC(=O)N2C(C)CCCC2C)n1CC (stereo unspecified)	4	103	i	0.9	0	78	.
59	Nc1ccccc1Sc1ccc(C(F)(F)F)cc1[N+](=O)[O-]	.	102	i	1.2	.	.	.
60	COc1cc(C2Nc3ccccc3C(=O)N2c2ccccc2OC)ccc1O (stereo unspecified)	-14	99	.	.	.	.	-1.4
61	CN1CCc2c(C#N)c(N3CCCCC3)nc(N3CCOCC3)c2C1	-15	.	i	1	.	.	-1.6
62	COc1ccc(CCNC(=O)CSc2ccccn2)cc1OC	-3	104	i	0.98	0	72	.
63	Cc1ccc(S(=O)(=O)N2CCC(C(=O)C3C(=O)CCCC3=O)CC2)cc1	1	100	i	1	-23	86	.
64	COc1cc(Cn2c(N)c(C#N)c3nc4ccccc4nc32)cc(OC)c1	-6	102	.	.	.	.	13*
65	Cc1ccc(SCC(=O)Nc2cc([N+](=O)[O-])ccc2O)cc1	2	116	i	0.97	.	.	.
66	Cc1cc(C)n(-c2nc3sc4c(c3c3nnc(SCC(N)=O)n23)CC(C)(C)OC4)n1	-7	100	i	0.88	27	142	0.5
67	Cc1ccc(NC(=S)N/N=C2\CC3CC=CC23)c(C)c1 (stereo unspecified)	-7	99	i	1	-45	101	.
68	O=C(Cn1cncn1)N/N=C/c1ccncc1	.	106	i	1.2	.	.	.
69	Cc1ccc(C2=NOC3(CC(=O)N(c4ccc(C)cc4)C3=O)C2)cc1 (stereo unspecified)	.	84	i	1	.	.	.
70	COCCOC(=O)/C(=C/c1ccc(OC(=O)c2ccccc2)cc1)C(C)=O	-1	99	i	0.91	.	.	-0.3
71	CN(C)CCCN(CCCNC(=O)/C=N/O)Cc1ccccc1	13	101	i	0.95	.	.	1.1
72	CC(C)c1ccc(C(=O)CC2(O)C(=O)N(CN3CCOCC3)c3ccccc32)cc1 (stereo unspecified)	-10	101	i	1.1	-36	55	-1.1
73	O=C(O)c1cccc(NC2=C(n3nnc4ccccc43)C(=O)c3ccccc3C2=O)c1	.	92	i	0.93	.	.	.
74	O=[N+]([O-])c1cccnc1Oc1ccccc1F	.	96	i	1.1	.	.	.
75	CCOC(=O)C(C)N1C(=O)S/C(=C/c2cc(C)n(-c3ccccn3)c2C)C1=O (stereo unspecified)	2	123	i	0.93	19	127	0.7
76	COc1ccc(CCN2C(=O)CCC2(C)C(=O)NCc2cccnc2)cc1OC (stereo unspecified)	-5	90	i	0.86	40	89	-2.6
77	COC(=O)c1ccccc1NC(=O)CNC(=O)c1ccc(OC)c(OC)c1	5	102	i	0.94	.	.	.
78	CCOc1ccc2nc(NC(=O)C3CCCN(S(=O)(=O)c4c(C)noc4C)C3)sc2c1 (stereo unspecified)	.	92	i	1.1	.	.	.
79	COC(=O)/C=C(\C)NC(=O)c1ccccc1Cl	-7	102	i	0.91	18	69	-0.8
80	O=C(NCCCn1ccnc1)c1ccc(Cl)cc1	.	99	i	1.3	.	.	.
81	Cc1cc(C)c(NC(=S)NC(CO)(CO)CO)c(C)c1	.	101	i	0.97	.	.	.
